Screening results as filed in PubChem BioAssay.
Autofluor counter = compound fluorescence in toxin protease inhibitor counterscreen; fluorescence intensity (no concentration beside the values); compound autofluorescence counterscreen, microsphere flow cytometry; active compounds read high; 3.1% of 360,000 active;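 active means at least 3 SD above the mean of all compounds, about 16000 in these data; inconclusive means too few beads counted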;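 further: 100 nL of 1 mM stock went into each well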
Mtb hypoxia rep = inhibitors of hypoxia-regulated fluorescent reporter in Mycobacterium tuberculosis; M. tuberculosis hypoxia-regulated fluorescent reporter, fluorescence; fluorescence inhibition, % (no concentration beside the values); 0.1% of 300,000 active; AID 1159583;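 active means 35 to 45% if threefold the growth effect, above 45% if 1.5-fold the growth effect; inactive means the rest, general growth blockers included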;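 further: wells of about 50 µL received 100 nL stock; 0% = vehicle wells and 100% = reference inhibitor wells; whole bacteria with a GFP reporter of the hypoxia response; strong numbers were not always called active; many hits fall short of the cut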
BJeLR lethal = BJeLR cell viability loss; BJeLR (HRASV12) viability, CellTiter-Glo ATP luminescence, 48 h; reference of the scale not given here; inhibition, % (concentration not given with the values); 0.17% of 300,000 active;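 active means replicate mean above 50%; inconclusive means above 50% but judged a plate artefact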;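 further: 50 nL library stock added to about 25 µL; numbers are from one replicate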
ugtP null kill = growth inhibition of S. aureus ugtP deletion strain | S. aureus RN4220 ugtP deletion, OD600 growth, 16 h; some inactives read as strong as hits | growth inhibition, % (no concentration beside the values) | 0.54% of 330,000 active | AID 1259309;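 active means z-score under -3 and OD600 up to 0.15 on both plates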;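 further: plate controls were untreated wells for no effect and antibiotic for full effect; wells of about 80 µL received 100 nL stock; the first replicate is given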
PrP 5UTR inh = inhibition of PrP 5' UTR reporter expression. AID 488862. cell-based PrP 5' UTR mRNA reporter, plate reader. inhibition, % (test concentration not listed). 0.35% of 340,000 active;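 active means every replicate at 50% or more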;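 further: 0 = median of the neutral control wells; tested in H4 reporter cells; numbers are from one replicate; inactives centre near -14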
Sa RN4220 lethal = kills Staphylococcus aureus RN4220 | S. aureus RN4220 growth, OD600, 16 h | inhibition, % (test concentration not listed) | AID 1259311 | 0.33% of 330,000 active;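 active means z-score of -3 or lower and OD600 up to 0.18 on both plates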;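 further: plate controls were untreated cells for no effect and reference antibiotic for full effect; stock transfer was 100 nL into about 80 µL; one replicate is shown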
Mtb hypoxia rep growth = second read-out of Mtb hypoxia rep, no call of its own (marks repeat the call); growth inhibition, %; measured here: M. tuberculosis growth (absorbance);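 0% = vehicle and 100% = reference antibiotic; read after six days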
Starred values were filed as active, the others as inactive; ? = inconclusive; nt = no result given.

SMILES | Autofluor counter | Mtb hypoxia rep | Mtb hypoxia rep growth | BJeLR lethal | ugtP null kill | PrP 5UTR inh | Sa RN4220 lethal
CCS(=O)(=O)N1CCN(C(=O)c2ccccc2[N+](=O)[O-])CC1 | 5071 | 0 | -6 | -1 | 9 | -2 | 2.3
Cc1ccc(S(=O)(=O)n2cnc3ccccc32)c(C)c1 | 5834 | 13 | 6 | 1 | -2 | -33 | 5.0
CCOc1ccc2nc(NC(=O)/C=C/c3ccc4c(c3)OCO4)sc2c1 | 2495 | -2 | -5 | -9 | 9 | -9 | 3.9
CCOC(=O)N(Cc1ccccc1)Cc1ccc(C(=O)N[C@@H](Cc2ccccc2)C(=O)O)cc1 | 3633 | -2 | 4 | -6 | 2 | -4 | 3.1
O=[N+]([O-])c1cccc2c(N3CCOCC3)ccnc12 | 4711 | 12 | 14 | 1 | -3 | -28 | 2.9
CSc1ncccc1C(=O)N1CCN(C(=O)c2ccccc2)CC1 | 3781 | -2 | -4 | -3 | 3 | -14 | -1.6
CCc1nc(SCC(=O)Nc2cccc(C(F)(F)F)c2)c2c(=O)n(C)c(=O)n(C)c2n1 | 7886 | -7 | -4 | 7 | 2 | -6 | 25
COc1cc(C=NNC(=O)c2ccncc2)ccc1OC(=O)c1cccc(F)c1 | nt | nt | nt | nt | 3 | nt | 1.2
CCOC(=O)c1cnc(-n2nc(C)cc2C)nc1NNc1cc(-c2ccccc2)nc(C)n1 | nt | 9 | 15 | 27 | -10 | nt | 11
O=C(OCC1COC(c2ccccc2)(c2ccccc2)O1)c1ccccc1 (centres undefined) | 3725 | 20 | 8 | nt | 12 | 6 | 7.4
CC(C)CCN(C(=O)Nc1ccccc1)C(C)c1cccs1 (centres undefined) | 20892* | -21 | -11 | nt | -1 | -24 | -0.5
O=C(Nc1ccccc1)c1c(O)c2c(n(Cc3ccco3)c1=O)CCCC2 | 3684 | 11 | 1 | 3 | 20 | -26 | -8.5
O=C1C2C3CC(C2C(=O)N1c1cccc(Cl)c1)[C@H](O)C3O (some centres undefined) | 3445 | 9 | 13 | 7 | -2 | -2 | 4.5
COc1ccc(S(=O)(=O)N2CCN(C(=O)C3COc4ccccc4O3)CC2)cc1 (centres undefined) | 7918 | -1 | 4 | nt | 5 | -25 | 0.9
COc1ccc(C(=O)NCCCCCC(=O)N/N=C/c2ccco2)cc1OC | 2548 | nt | nt | -2 | nt | -22 | nt
NC(=O)CN(c1ccc(Oc2ccccc2)cc1)S(=O)(=O)c1ccccc1 | 5606 | -2 | 2 | 9 | -2 | -7 | 2.3
CCN1C(=O)/C(=C/c2cccs2)SC1=Nc1ccc(OC)cc1 | 3226 | 4 | 8 | -8 | -13 | -12 | -13
Cc1c(Cl)cccc1NC(=O)CCC(=O)NNC(=O)c1ccccc1 | 2465 | 2 | 7 | -2 | -5 | -17 | -0.6
Cc1cccc(N2C(=O)CS/C2=N\NC(=O)c2ccc(Br)cc2)c1C | 9612 | nt | nt | -1 | nt | -22 | nt
CN1CC2C3C(=O)N(Cc4ccccc4)C(=O)C3[C@](Cc3ccccc3)(C1=O)N2C(=O)c1ccc(Br)cc1 (some centres undefined) | nt | 14 | -1 | nt | 6 | nt | 3.3
N#Cc1ccc(OCC(=O)N2CCc3ccccc32)cc1 | 6655 | 4 | 3 | nt | 1 | -30 | 7.3
CCN(CC)C(=O)C(=O)Nc1ccc(OC)c(Cl)c1 | 3932 | 9 | -3 | 0 | 6 | -18 | 4.2
O=C(NCc1ccccc1Cl)C1CCC(CNc2c(N3CCCCC3)c(=O)c2=O)CC1 (centres undefined) | 4782 | -5 | 16 | 1 | 4 | 5 | 0.7
O=S(=O)(NCC1CCCO1)c1cnc(Cl)c(Br)c1 (centres undefined) | 8890 | nt | nt | 8 | 8 | -19 | 4.7
CC(OC(=O)CC1CCCC1)C(=O)Nc1ccc(Cl)cn1 (centres undefined) | 3924 | 7 | 1 | 4 | 15 | -48 | 3.4

Whole records, quoted from the list. Screens in order: Autofluor counter | Mtb hypoxia rep | Mtb hypoxia rep growth | BJeLR lethal | ugtP null kill | PrP 5UTR inh | Sa RN4220 lethal
Record of O=C(Nc1ccccc1)c1c(O)c2c(n(Cc3ccco3)c1=O)CCCC2 = 3684 | 11 | 1 | 3 | 20 | -26 | -8.5
Record of O=C(OCC1COC(c2ccccc2)(c2ccccc2)O1)c1ccccc1 (centres undefined) = 3725 | 20 | 8 | nt | 12 | 6 | 7.4
Record of CCOc1ccc2nc(NC(=O)/C=C/c3ccc4c(c3)OCO4)sc2c1 = 2495 | -2 | -5 | -9 | 9 | -9 | 3.9

The list goes on:
SMILES | Autofluor counter | Mtb hypoxia rep | Mtb hypoxia rep growth | BJeLR lethal | ugtP null kill | PrP 5UTR inh | Sa RN4220 lethal
Cc1csc(NC(=O)C2CCN(S(=O)(=O)c3cccs3)CC2)n1 | 4250 | 5 | 2 | 5 | 2 | -22 | 2.1
Cc1ccc(N2C(=O)NC(NC(=O)C3CC3)(C(F)(F)F)C2=O)cc1 (centres undefined) | 10161 | 8 | 2 | -20 | 0 | -5 | 3.6
COc1ccc(C(=O)Nc2cc(C)on2)cc1S(=O)(=O)N1CC(c2ccccc2)CC1=O (centres undefined) | 4659 | 3 | -4 | -3 | -4 | -28 | 0.3
CN(C(=O)COC(=O)c1c2c(nc3ccccc13)/C(=C/c1cccc([N+](=O)[O-])c1)CCC2)C1CCS(=O)(=O)C1 (centres undefined) | 2810 | -7 | 1 | 5 | -6 | 5 | 4.7
CS(=O)(=O)c1ccc(Cl)c(NC(=O)COC(=O)CNC(=O)c2cccs2)c1 | 6307 | nt | nt | 3 | nt | -5 | nt
C/C(=N\NC(=O)CC1N=C(Cc2ccccc2)NNC1=O)c1ccc(Br)cc1 (centres undefined) | 5616 | nt | nt | 12 | nt | -5 | nt
O=C(CCc1ccccc1)N/N=C/c1cc(Br)ccc1O | 2067 | nt | nt | -5 | nt | 5 | nt
CS(=O)(=O)N(CCc1ccccc1)CC(=O)NCc1ccccc1 | 4715 | 5 | 10 | -6 | -4 | -11 | 2.1
Cc1sc2ncn3cnnc3c2c1C | 2256 | 9 | 3 | -1 | 7 | -11 | 2.4
CC(=O)c1ccc2c(c1)OCCOCCOCCOCCOCCO2 | 6041 | 1 | 14 | 6 | -3 | nt | -2.5
COC(=O)C1=C(N)Oc2cc(C)n(Cc3cccnc3)c(=O)c2C1c1ccc(OC)c(OC)c1 (centres undefined) | 2654 | nt | nt | 7 | 1 | -4 | -0.8
N#Cc1ccc(-c2csc(-c3ccno3)n2)cc1 | nt | 1 | -4 | 16 | -8 | nt | 3.0
COc1ccc(S(=O)(=O)N(C)CC2Oc3ccc(NS(=O)(=O)c4c(C)noc4C)cc3C(=O)N(C(C)CO)CC2C)cc1 (centres undefined) | nt | 1 | 1 | nt | 1 | nt | 5.5
Cc1cccc(C(=O)NC(CC(=O)O)c2ccc(OC3CCCC3)cc2)c1[N+](=O)[O-] (centres undefined) | 3412 | 3 | 1 | 4 | -11 | 7 | 0.2
CC(=O)N1CCN2C(=O)C1CCCC(=O)c1cc(C)ccc12 (centres undefined) | 2883 | 16 | 8 | 4 | -4 | -24 | -13
CC(=O)c1cccc(NC=C2C(=O)OC3(CCCCC3)OC2=O)c1 | 2254 | nt | nt | -9 | 11 | -1 | 2.4
COc1cccc(C=NNC(=O)CNC(=O)c2cccs2)c1O | nt | 1 | -10 | nt | -2 | nt | 0.1
CCCN1CCN(CCCNC(=O)C(CC)n2nc(C)c3sc4ccccc4c3c2=O)CC1 (centres undefined) | 5367 | 13 | 8 | -2 | 8 | 7 | 1.7
COc1ccccc1C(=O)Nc1ccnn1C1CCN(Cc2cc(C)c(C)cc2C)CC1 | 4675 | -1 | 0 | 0 | 4 | -10 | 0.2
Cc1ccc(C(=O)N/C(=C\c2cccs2)C(=O)NC2CCCCC2)cc1 | 4316 | 14 | 10 | -11 | 2 | -17 | 3.7
OCCN1CCN(c2nc(NCc3ccco3)c3ccccc3n2)CC1 | 2684 | 13 | 1 | 4 | -2 | -21 | -9.1
COc1ccc(NC(=O)c2ccc(NC(=O)CN3CCN(c4ccccc4)CC3)cc2)cc1 | 3899 | -4 | -4 | nt | -2 | -18 | 2.2
CC1(C)OC(=CC=Nc2ccccc2)C=C(c2ccccc2)O1 | nt | 3 | 10 | nt | -10 | nt | 5.2
CCc1sc(C(=O)Nc2ccccc2N2CCOCC2)cc1C | 4686 | 3 | 0 | -1 | 7 | -22 | 8.6
COCCOc1cc(COC)nc(-c2cccc(C)c2)n1 | 6814 | 9 | 2 | 1 | 0 | -37 | 0.2

In a second layout: two of the compounds above.
molecule,Autofluor counter,Mtb hypoxia rep,Mtb hypoxia rep growth,BJeLR lethal,ugtP null kill,PrP 5UTR inh,Sa RN4220 lethal
COc1ccc(S(=O)(=O)N2CCN(C(=O)C3COc4ccccc4O3)CC2)cc1 (centres undefined),7918,-1,4,nt,5,-25,0.9
COc1ccc(C(=O)NCCCCCC(=O)N/N=C/c2ccco2)cc1OC,2548,nt,nt,-2,nt,-22,nt

In the list so far, these contain a furan ring, fused or not:
SMILES | Autofluor counter | Mtb hypoxia rep | Mtb hypoxia rep growth | BJeLR lethal | ugtP null kill | PrP 5UTR inh | Sa RN4220 lethal
O=C(Nc1ccccc1)c1c(O)c2c(n(Cc3ccco3)c1=O)CCCC2 | 3684 | 11 | 1 | 3 | 20 | -26 | -8.5
COc1ccc(C(=O)NCCCCCC(=O)N/N=C/c2ccco2)cc1OC | 2548 | nt | nt | -2 | nt | -22 | nt
OCCN1CCN(c2nc(NCc3ccco3)c3ccccc3n2)CC1 | 2684 | 13 | 1 | 4 | -2 | -21 | -9.1

Further compounds
SMILES | Autofluor counter | Mtb hypoxia rep | Mtb hypoxia rep growth | BJeLR lethal | ugtP null kill | PrP 5UTR inh | Sa RN4220 lethal
O=c1c2c(nc3cc(-c4ccc(Cl)cc4)[nH]n13)CCS2 | 2016 | 4 | 4 | 6 | 2 | -93 | 3.7
COc1ccc(OC)c(S(=O)(=O)NCCCc2ccccc2)c1 | 4308 | -2 | 0 | 1 | 7 | -22 | 5.0
Cc1cccn2c(=O)c(/C=C(\C#N)C(=O)NCc3ccco3)c(N3CCCCC3)nc12 | 2346 | 11 | 4 | -6 | 6 | 5 | 3.7
O=C(COC(=O)c1cccc(C(=O)OCC(=O)NC2CCCCC2)n1)NC1CCCCC1 | 3692 | -2 | 8 | 2 | -1 | -25 | 2.3
COc1ccccc1-c1nc(-c2ccc(C(=O)O)cc2)no1 | 3730 | 6 | 3 | 2 | 4 | -5 | 7.4
COc1cccc2sc(N(CCCN(C)C)C(=O)c3ccc(S(=O)(=O)N4CCCc5ccccc54)cc3)nc12 | 6246 | -2 | 12 | 15 | -23 | -7 | -7.7
O=C(NCC1CCCN(Cc2nccs2)C1)c1cccc2ccccc12 (centres undefined) | 6247 | -12 | 1 | 0 | -3 | -2 | -1.6
CC(OC(=O)CCN=C1NS(=O)(=O)c2ccccc21)C(=O)NCc1ccccc1 (centres undefined) | 5919 | -3 | 2 | 8 | 2 | 67* | 3.9
Cc1cccc(CC(=O)NCC(=O)NCc2cc(=O)n(C)c(=O)n2C)c1 | 5776 | -2 | -4 | -7 | 6 | -7 | 3.8
Cc1cccc(-c2nnc(SCC(=O)N3CCCC3)o2)c1 | 2899 | 25 | 11 | 4 | 10 | -52 | 3.3
CCCc1nc2ccccc2c(C(=O)OCC(=O)Nc2cccc(S(=O)(=O)N3CCOCC3)c2)c1CC | 3211 | -2 | 0 | -1 | -3 | -1 | -6.3
C=CCc1c(O)c(CC)cc2c(C)cc(=O)oc12 | 4556 | 6 | -1 | -10 | 14 | 0 | 3.5
COc1cccc(NC(=O)[C@@H]2CCCN2C(=O)[C@@H]2Cc3ccccc3CN2C(=O)OC(C)(C)C)c1 | 5170 | 10 | 5 | 3 | 3 | -36 | 1.9
COc1ccc(-c2csc(Nc3ccc(C)cn3)n2)cc1 | 4258 | 10 | 7 | 16 | 6 | -46 | -7.5
Cc1c(Cl)cccc1NC(=O)Nn1cnnc1 | ? | -1 | -3 | 2 | -1 | -5 | -0.6
CCn1c(C)c(C(C)=O)c(N2CCN(c3ccccn3)CC2)nc1=S | 8605 | 7 | 10 | -3 | 6 | -25 | 3.8
CCc1cc(/C(Cc2ccc3ccccc3n2)=N\O)c(O)cc1O | 2506 | nt | nt | -3 | nt | -13 | nt
